Screening data deposited in PubChem by National Center for Advancing Translational Sciences (NCATS).
PINK1 modulator – A Quantitative High throughput Screen to Identify Chemical Modulators of PINK1 Expression. PINK1 immunofluorescence, high-content cytometry, 24 h. AID 624263, 2012. hit rate 0.2% among 410,000. Potency, µM (highest dose often 76.6 µM), inactives show at the top dose activation (PINK1 increase), hits mostly activators; active = well fitted activation curve with a large enough effect; inconclusive = small, poorly fitted or top-dose-only effect; inactive = flat fitted curve, though single readings scatter; cell line not stated here;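 note: potency is the fitted concentration of half-maximal effect; % of control where 0% means no effect; nearly all actives have a fitted effect of over 65% in size; a mitochondrial uncoupler was the plate control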
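PINK1 protein, normally rapidly degraded, was detected by immunofluorescence after 24 hour compound treatment of a stable cell line. Titration data (5 concentrations) came from laser-scanning cytometry, with CCCP-treated wells as controls.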
TRPML1 ag – qHTS for Agonists of the Human Mucolipin Transient Receptor Potential 1 (TRPML1); hit rate 0.12% among 410,000; TRPML1-expressing cells, Ca2+ dye fluorescence, FDSS; host cell line not named in the record; reference of the full effect not given here; AID 624414, 2012; activation, % (no concentration beside the values); Mucolipin-1 (Homo sapiens), Q9GZU1; in the data active = activation above about 50%; inconclusive = about 30% to 50%; inactive = below about 30%; note: 0% is about no effect; the text of the record puts the active cut at 80%
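Kinetic FDSS Ca2+ read in Tet-induced TRPML1-DL cells (ABD Ca8 dye plus quencher, 45-90 min RT loading): baseline, then compound, then 110 s agonist window; EC80 agonist 54-4 at 4uM final added afterwards for a 110 s antagonist window.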
D2 ag – Beta-Arrestin HTS for Positive Allosteric Modulators of the Human D2 Dopamine Receptor: Agonists | DiscoveRx PathHunter D2 beta-arrestin, luminescence, 90 min; 100% = 57 uM dopamine signal | activation, % (test concentration not listed) | hit rate 0.084% among 360,000; in the data active = activation above about 40%; inconclusive = about 15% to 40%; inactive = below about 15%; note: compound concentration not given in the record; the text of the record calls up to 30% inactive
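DiscoveRx PathHunter D2 beta-arrestin cells (2,100/well) attached overnight, then compound-stimulated 90 min at 37 C in HBSS/10 mM HEPES/0.1% Tween-20 buffer; beta-galactosidase complementation read by luminescence after 1 h at ambient temperature. Dopamine 57 uM final (EC100) as control.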
D2 PAM – Beta-Arrestin HTS for Positive Allosteric Modulators of the Human D2 Dopamine Receptor: Potentiators; DiscoveRx D2 beta-arrestin cells, luminescence, 90 min; 100% = 57 uM dopamine signal; potentiation, % (test concentration not listed); hit rate 0.23% among 360,000; AID 624464, 2012; active = potentiation of 50% or more; inconclusive = 30% to 50%; inactive = 30% or less;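 note: compound concentration not given in the record; tested on top of an EC20 dose of dopamine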
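PathHunter D2 cells, attached overnight at 37 deg C, received compound in DMSO plus dopamine at EC20 (50 nM final) for 90 min at 37 deg C. Beta-arrestin recruitment was read as luminescence after 1 h with detection reagent at ambient temperature.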
Six1-Eya2 inh – qHTS Assay for Inhibitors of the Six1/Eya2 Interaction; AlphaScreen GST-Six1/His-Eya2 binding, biochemical; hits give low values; control for the full effect not named in the record; activity change, % (no concentration beside the values); Homeobox protein SIX1 (Homo sapiens) + Protein phosphatase EYA2 (Homo sapiens), …; hit rate 0.56% among 360,000; AID 651725, 2012; in the data active = activity change below about -65%; inconclusive = about -30% to -65%; inactive = above about -30%; note: % is set by controls: 0 for no effect and ±100 for the full control effect; compound concentration not given in the record
Target sequence (O00167 whole entry, looked up): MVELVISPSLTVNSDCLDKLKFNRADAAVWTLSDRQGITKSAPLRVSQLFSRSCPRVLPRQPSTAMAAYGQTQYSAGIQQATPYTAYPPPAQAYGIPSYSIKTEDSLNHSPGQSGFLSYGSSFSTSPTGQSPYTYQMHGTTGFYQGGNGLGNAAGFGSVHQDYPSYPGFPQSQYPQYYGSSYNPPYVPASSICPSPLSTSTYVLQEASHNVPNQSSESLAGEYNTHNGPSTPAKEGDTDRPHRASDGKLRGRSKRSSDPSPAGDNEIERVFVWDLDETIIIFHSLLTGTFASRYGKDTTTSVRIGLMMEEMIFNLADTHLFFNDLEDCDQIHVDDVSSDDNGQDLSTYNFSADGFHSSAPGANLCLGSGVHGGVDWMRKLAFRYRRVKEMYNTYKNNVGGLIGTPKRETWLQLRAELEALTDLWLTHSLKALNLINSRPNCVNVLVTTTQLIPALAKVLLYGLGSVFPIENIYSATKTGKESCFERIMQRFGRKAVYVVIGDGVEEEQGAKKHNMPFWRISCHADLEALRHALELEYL
Target sequence (Q15475 whole entry, looked up): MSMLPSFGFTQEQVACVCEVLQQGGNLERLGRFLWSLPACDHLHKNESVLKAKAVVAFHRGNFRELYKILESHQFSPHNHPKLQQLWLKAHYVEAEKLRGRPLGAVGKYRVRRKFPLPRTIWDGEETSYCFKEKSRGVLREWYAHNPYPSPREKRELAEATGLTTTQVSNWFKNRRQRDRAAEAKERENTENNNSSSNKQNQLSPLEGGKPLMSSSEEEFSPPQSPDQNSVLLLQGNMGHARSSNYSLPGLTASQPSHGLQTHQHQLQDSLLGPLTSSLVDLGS
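GST-Six1 + His-Eya2 (5X stock: 250/500 nM); Tris pH 8.0, 300 mM NaCl, 0.05% BSA, 0.02% Tween 20; GSH donor/Ni acceptor beads; 1 h 37 °C dark; AlphaScreen readout.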
CtBP-E1A blk – qHTS Assay for Inhibitors of the CtBP/E1A Interaction. CtBP / adenovirus E1A interaction (AlphaScreen). AlphaScreen GST-E1A/His-CtBP binding, 1536-well; hits give low values; control for the full effect not named in the record. activity change, % (test concentration not listed). hit rate 0.49% among 340,000. AID 651724, 2012; in the data active means activity change below about -65%; inconclusive means about -30% to -65%; inactive means above about -30%; note: % is set by controls: 0 for no effect and ±100 for the full control effect; compound concentration not given in the record
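GST-E1A and His-tagged CtBP (125 nM each as 5X stock) were preincubated with pin-transferred compound for 2 h at 37 °C in the dark, then glutathione donor and nickel acceptor beads were added for 1 h before AlphaScreen reading.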
* hit, by the source's call; & = joins results of further samples; [ ] = remark or other dose. Compounds were not picked by outcome; overall some 1.3% were active at least once.

`CC(C)Cc1nc(Cl)c(C#N)c2c1CCCC2` gave PINK1 modulator 1.8%, TRPML1 ag 2.0, D2 ag -2.1, D2 PAM -2.0, Six1-Eya2 inh 16.7 and CtBP-E1A blk 29.1.
For C=C[C@]1(C)C[C@@H](OC(=O)CSCCN(CC)CC)[C@]2(C)C(C)CC[C@]3(CCC(=O)[C@H]32)[C@@H](C)[C@@H]1O (some centres not stated) the results were PINK1 modulator -0.1%&0.2%, TRPML1 ag -0.6&1.1, D2 ag 1.9&-7.5, D2 PAM -19.6&-25.7, Six1-Eya2 inh -4.8&1.4 and CtBP-E1A blk -1.9&-18.2.
For COC(=O)c1ccc(C(=O)N2CCCC(N3CCN(c4ccc(F)cc4)CC3)C2)nc1 (configuration not stated) the results were PINK1 modulator 2.2%, TRPML1 ag 0.4, D2 ag -1.2, D2 PAM -6.0, Six1-Eya2 inh -4.5 and CtBP-E1A blk -3.4.
C=CC[C@@H](CC(=O)NCCO)C(=O)N[C@@H](COC(=O)[C@@H](CC=C)Cc1ccc(F)cc1)Cc1c[nH]c2ccccc12 was read as PINK1 modulator 10.9%, TRPML1 ag -0.5, D2 ag 5.3, D2 PAM -0.5, Six1-Eya2 inh -12.2 and CtBP-E1A blk 18.9.
For CCN(Cc1ccccc1)C(=O)Cn1cnc2c1c(=O)n(C)c(=O)n2C the results were PINK1 modulator -14.5%[38.3 µM], TRPML1 ag -0.5, D2 ag -4.3, D2 PAM -5.4, Six1-Eya2 inh -0.7 and CtBP-E1A blk 3.4.
`CC(C)OC(=O)CSc1nc(-c2ccc(F)cc2)nc2ccc(F)cc12` gave PINK1 modulator 7.0%, TRPML1 ag 1.2, D2 ag 0.6, D2 PAM 9.0, Six1-Eya2 inh -5.8 and CtBP-E1A blk -20.3.
For COc1ccc2[nH]c(C(=O)N(Cc3ccccn3)Cc3ccccn3)cc2c1 the results were PINK1 modulator 0.8%, TRPML1 ag -0.3, D2 ag -2.8, D2 PAM -17.7 and Six1-Eya2 inh -0.9.
Screening Cn1c(Cn2cnc3ccccc32)nc2ccccc21 returned PINK1 modulator -0.3%, TRPML1 ag 0.0, D2 ag -0.9, D2 PAM -14.4, Six1-Eya2 inh -0.5 and CtBP-E1A blk 1.7.
`CC(C)C[C@H]1COc2cc(Br)ccc2S(=O)(=O)N1` gave PINK1 modulator 2.8%, TRPML1 ag -0.7, D2 ag -7.0, D2 PAM 3.9, Six1-Eya2 inh 4.9 and CtBP-E1A blk 5.8.
For O=C(O)COc1ccc(/C=C2\SC(=Nc3ccccc3)N(c3ccccc3)C2=O)cc1 the results were PINK1 modulator 0.1%, TRPML1 ag 1.7, D2 ag -5.6, D2 PAM -0.9 and Six1-Eya2 inh 0.6.
CCN(CC)CCCNC(=O)c1cn(CC)c2ccc(S(=O)(=O)N(C)C3CCCCC3)cc2c1=O was read as PINK1 modulator -2.0%, TRPML1 ag 0.0, D2 ag -3.3, D2 PAM -12.7, Six1-Eya2 inh 2.5 and CtBP-E1A blk -5.3.
Screening O=C1Nc2ccc(Br)cc2/C1=C/C(=O)c1ccc2c(c1)OCO2 returned PINK1 modulator -1.5%, TRPML1 ag 0.5, D2 ag -7.0, D2 PAM -20.3 and Six1-Eya2 inh -1.8.
For Nc1nc(SCC(=O)Nc2cccc(F)c2)n[nH]1 the results were PINK1 modulator 3.2%, TRPML1 ag 0.1, D2 ag -2.0, D2 PAM -2.2 and Six1-Eya2 inh 0.3.
For O=C(Nc1ccc(Cl)cc1)Nc1nnc(SCc2ccc(Cl)cc2)s1 the results were PINK1 modulator 3.1%, TRPML1 ag 0.3, D2 ag -4.1, D2 PAM -1.5, Six1-Eya2 inh 7.7 and CtBP-E1A blk 6.2.
Screening O=C(c1cc(C2CC2)on1)N1CCCC(N2CCN(c3cccc(C(F)(F)F)c3)CC2)C1 (configuration not stated) returned PINK1 modulator -2.0%, TRPML1 ag 2.5, D2 ag -2.7, D2 PAM -0.1, Six1-Eya2 inh 4.6 and CtBP-E1A blk -6.5.
O=C(O)COc1ccc(NC(=O)c2cccs2)cc1 was read as PINK1 modulator -1.8%, TRPML1 ag -0.3, D2 ag -4.1, D2 PAM -7.6, Six1-Eya2 inh -0.1 and CtBP-E1A blk 13.2.
Cc1cccc(CSc2nnc(NC(=O)c3ccco3)s2)c1 was read as PINK1 modulator inconclusive, TRPML1 ag 0.4, D2 ag 2.0, D2 PAM -9.1, Six1-Eya2 inh 3.4 and CtBP-E1A blk 1.4.
For C=C1c2cccc(OC)c2O[C@H](C(=O)OCC)[C@@H]1CC(CC)CCCC (some centres not stated) the results were PINK1 modulator 18.8%, TRPML1 ag 0.2, D2 ag 0.3, D2 PAM -3.6, Six1-Eya2 inh 21.6 and CtBP-E1A blk 0.7.
For Cc1c([N+](=O)[O-])c([N+](=O)[O-])nn1CC(=O)NCc1cccnc1 the results were PINK1 modulator 1.3%, TRPML1 ag -0.7, D2 ag -0.5, D2 PAM 4.3, Six1-Eya2 inh 4.0 and CtBP-E1A blk -14.6.
CC(NC(=O)C(C)N1C(=O)c2ccccc2C1=O)c1ccccc1 (configuration not stated) was read as PINK1 modulator 1.0%, TRPML1 ag -0.3, D2 ag -0.7, D2 PAM 1.8, Six1-Eya2 inh -3.3 and CtBP-E1A blk 5.0.

Random excerpt: 3 entries already listed, in no set order.
`CC(C)Cc1nc(Cl)c(C#N)c2c1CCCC2` gave PINK1 modulator 1.8%, TRPML1 ag 2.0, D2 ag -2.1, D2 PAM -2.0, Six1-Eya2 inh 16.7 and CtBP-E1A blk 29.1.
Screening O=C1Nc2ccc(Br)cc2/C1=C/C(=O)c1ccc2c(c1)OCO2 returned PINK1 modulator -1.5%, TRPML1 ag 0.5, D2 ag -7.0, D2 PAM -20.3 and Six1-Eya2 inh -1.8.
`CC(C)OC(=O)CSc1nc(-c2ccc(F)cc2)nc2ccc(F)cc12` gave PINK1 modulator 7.0%, TRPML1 ag 1.2, D2 ag 0.6, D2 PAM 9.0, Six1-Eya2 inh -5.8 and CtBP-E1A blk -20.3.

(continued)
CCOC(=O)Nc1ccc2ncn(C)c(=O)c2c1 was read as PINK1 modulator -0.8%, TRPML1 ag -0.6, D2 ag -4.5, D2 PAM -4.4, Six1-Eya2 inh 8.1 and CtBP-E1A blk -14.1.
`Cc1cc(NS(=O)(=O)c2ccc(NC(=O)C(c3ccccc3)c3ccccc3)cc2)no1` gave PINK1 modulator -2.9%, TRPML1 ag -1.5, D2 ag 0.2, D2 PAM 3.1, Six1-Eya2 inh 4.6 and CtBP-E1A blk -7.3.
Cc1ccc(C)c(NC(=O)CN(C)C(=O)[C@@H](NC(N)=O)C(C)C)c1 was read as PINK1 modulator -1.0%, TRPML1 ag 0.2, D2 ag 0.2, D2 PAM -2.1, Six1-Eya2 inh 10.4 and CtBP-E1A blk 0.0.
`COc1ccc(S(=O)(=O)Nc2ccccc2C(=O)NC(C)C)cc1OC` gave PINK1 modulator 0.7%, TRPML1 ag -1.0, D2 ag -0.7, D2 PAM -7.6, Six1-Eya2 inh -1.5 and CtBP-E1A blk 2.8.
C=CCN(CC=C)c1cnn(-c2nc3ccccc3[nH]2)c(=O)c1Cl was read as PINK1 modulator 3.3%[38.3 µM], TRPML1 ag 2.4, D2 ag 3.0, D2 PAM 1.3, Six1-Eya2 inh -4.3 and CtBP-E1A blk 0.8.
CC(C)CCNc1nnnc2c1sc1nc(N3CCOCC3)c3c(c12)CC(C)(C)SC3 was read as PINK1 modulator 1.3%, TRPML1 ag 0.6, D2 ag -2.5, D2 PAM -5.2, Six1-Eya2 inh -0.7 and CtBP-E1A blk 3.6.
Screening CSc1ccc(C#N)cc1NC(=O)c1ccc(Cl)cc1Cl returned PINK1 modulator 11.6%, TRPML1 ag 0.6, D2 ag -4.9, D2 PAM -8.8, Six1-Eya2 inh 5.6 and CtBP-E1A blk -0.2.
For CN(CC(=O)Nc1ccccc1Cl)C(=O)c1ccc(COc2ccccc2)cc1 the results were PINK1 modulator 3.6%, TRPML1 ag -0.6, D2 ag -2.9, D2 PAM 19.2, Six1-Eya2 inh -3.7 and CtBP-E1A blk 7.8.
`CCn1c(O)c(C=Nc2ccccc2)n(-c2ccccc2)c1=S` gave PINK1 modulator 4.6%, TRPML1 ag -1.2, D2 ag -6.0, D2 PAM -7.5, Six1-Eya2 inh 3.3 and CtBP-E1A blk 5.2.
`C=C(C)c1cccc(C(C)(C)NC(=O)Nc2cc(C)ccc2OC)c1` gave PINK1 modulator -2.7%, TRPML1 ag 2.4, D2 ag 0.8, D2 PAM -1.1, Six1-Eya2 inh -1.2 and CtBP-E1A blk -11.3.
For COc1cccc(Nc2c(F)c(OC)c(F)c(F)c2C(=O)O)c1 the results were PINK1 modulator 3.9%, TRPML1 ag -0.6, D2 ag -2.0, D2 PAM -6.8, Six1-Eya2 inh 2.0 and CtBP-E1A blk -1.0.
For O=C(C(=O)N1CCc2ccccc2C1)c1cn(CC(=O)N2CCCC2)c2ccccc12 the results were PINK1 modulator 2.3%, TRPML1 ag -0.6, D2 ag -4.6, D2 PAM -11.4, Six1-Eya2 inh -16.4 and CtBP-E1A blk -12.1.
Screening CC(=O)N1c2ccc(S(=O)(=O)N3CCC(C(=O)N4CCN(c5ccccc5)CC4)CC3)cc2CC1C (configuration not stated) returned PINK1 modulator 1.8%, TRPML1 ag 0.6, D2 ag 1.0, D2 PAM -16.0 and Six1-Eya2 inh -2.8.
Screening CCOc1ccc(/C=N/Nc2ccccn2)cc1OC returned PINK1 modulator 0.7%, TRPML1 ag 0.9, D2 ag -2.0, D2 PAM -2.7, Six1-Eya2 inh -8.3 and CtBP-E1A blk -6.6.
`O=C(Nc1ccc(S(=O)(=O)Nc2ncccn2)cc1)c1ccccc1NS(=O)(=O)c1ccc(Cl)cc1` gave PINK1 modulator 1.1%, TRPML1 ag 0.1, D2 ag 0.0, D2 PAM 0.0, Six1-Eya2 inh -1.9 and CtBP-E1A blk -9.4.
For CCOC(=O)N1CCC(NC(=O)c2ccc3c(c2)N=C(CC)c2cc(C)ccc2S3)CC1 the results were PINK1 modulator -1.0%, TRPML1 ag 1.8, D2 ag 2.5, D2 PAM 2.3, Six1-Eya2 inh -7.8 and CtBP-E1A blk -23.9.
`COC(=O)c1ccccc1NC(=O)CSc1ncccn1` gave PINK1 modulator 1.0%, TRPML1 ag -0.6, D2 ag -1.8, D2 PAM -5.5, Six1-Eya2 inh 12.3 and CtBP-E1A blk 0.0.
For COc1cc(SC)ccc1C(=O)Nc1ccc(Cl)cn1 the results were PINK1 modulator -1.4%, TRPML1 ag 1.2, D2 ag -3.0, D2 PAM -32.9, Six1-Eya2 inh -6.6 and CtBP-E1A blk -24.7.
